HSV replic up: enhancers of HSV replication in host cells, fold increase, host cell viability | actives 0.005% (n = 220,000) | HSV replication augmentation in cells | AID 1956, 2009 | maximum fold increase;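 active means peak rise of 1.5-fold or more in the series; inconclusive means self-fluorescent or not available for retest; tested in PC3 cells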;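 further: first round at 10 µM; read as green reporter fluorescence; hits show the peak of a series up to 25 µM; 1 = signal of infected wells without compound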
GALR2 ag: GALR2 receptor agonists, primary screen, cell-based; Galanin receptor type 2 (Homo sapiens), O43603; GALR2-expressing cells, agonist activation read-out; activation, %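 (tested at 5 µM)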; actives 0.48% (n = 140,000);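 active means above mean plus 3 SD of all compounds, about 5% in these data, not always enough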;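 further: 0% = vehicle buffer wells and 100% = reference agonist at full effect; tested in CHO reporter cells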
Target sequence (O43603 whole entry, looked up): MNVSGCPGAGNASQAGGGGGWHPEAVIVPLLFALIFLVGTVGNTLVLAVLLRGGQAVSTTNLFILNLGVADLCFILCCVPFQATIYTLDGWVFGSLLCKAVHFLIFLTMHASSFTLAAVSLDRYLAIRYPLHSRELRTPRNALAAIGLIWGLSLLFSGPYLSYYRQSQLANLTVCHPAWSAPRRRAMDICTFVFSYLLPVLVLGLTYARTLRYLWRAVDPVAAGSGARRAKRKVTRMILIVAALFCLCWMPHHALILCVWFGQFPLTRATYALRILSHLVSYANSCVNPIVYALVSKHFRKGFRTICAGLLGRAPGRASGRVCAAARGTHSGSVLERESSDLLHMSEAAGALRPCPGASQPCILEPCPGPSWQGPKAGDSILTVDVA
Insulin prom inh: inhibitors of insulin promoter-driven GFP, primary screen, imaging, TRM-6 cells (human fetal islet line), eGFP reporter, cell count. reporter expression induced with tamoxifen. inhibition, % at 2 µM. actives 0.9% (n = 130,000);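 active means inhibition above the mean plus 3 SD, with well images judged a real hit on visual review, cut at about 60% in these data, passing the limit was not always enough; inconclusive means inhibition over the cutoff but images rejected on review; inactive means inhibition not above the cutoff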
PKD1 kinase inh: inhibitors of human PKD1 kinase, biochemical, fluorescence polarization; PKD1 kinase fluorescence polarization assay; actives 0.056% (n = 200,000); inhibition, %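 (about 10 µM by stock and volumes)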; AID 797, 2007; Serine/threonine-protein kinase D1 (Homo sapiens), Q15139;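 active means inhibition of 50% or more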;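 further: controls were vehicle for no effect and a reference inhibitor for full effect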
RGS16-Gao: modulators of RGS16 binding to Galphao, primary screen, biochemical, human proteins, multiplexed bead flow cytometry. bead-based flow cytometry RGS16-Galphao binding, fluorescence; actives lie on both sides. binding response (% of control), % at 10 µM. actives 0.38% (n = 220,000);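 active means below 25% or above 175%, edge rows of some plates excepted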;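 further: Galphao activated by GDP with aluminum fluoride before binding; 100% = wells without compound and 0% = beads without RGS; some results beyond the cut were filed as inactive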
Target sequence (O15492 whole entry, looked up): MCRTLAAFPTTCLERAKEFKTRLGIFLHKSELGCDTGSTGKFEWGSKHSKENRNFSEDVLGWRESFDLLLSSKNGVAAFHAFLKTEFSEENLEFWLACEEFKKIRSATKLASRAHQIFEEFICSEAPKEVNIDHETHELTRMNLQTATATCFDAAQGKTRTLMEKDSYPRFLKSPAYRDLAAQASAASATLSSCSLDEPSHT
Target sequence (P09471 whole entry, looked up): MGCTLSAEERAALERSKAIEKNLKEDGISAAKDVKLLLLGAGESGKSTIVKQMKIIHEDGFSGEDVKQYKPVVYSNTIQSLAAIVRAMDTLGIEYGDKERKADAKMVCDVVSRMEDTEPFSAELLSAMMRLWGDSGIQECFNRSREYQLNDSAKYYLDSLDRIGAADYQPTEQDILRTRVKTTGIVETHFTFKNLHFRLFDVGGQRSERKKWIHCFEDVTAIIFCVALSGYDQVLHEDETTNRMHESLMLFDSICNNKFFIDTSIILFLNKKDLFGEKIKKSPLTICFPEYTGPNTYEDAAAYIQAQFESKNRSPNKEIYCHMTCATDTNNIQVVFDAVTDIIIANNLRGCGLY
Insulin prom inh cell count: also measured in Insulin prom inh; calls as there; normalized cell count, %; measured here: cell count, toxicity; reference of the scale not given here;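 cells exposed to compound for 48 h; stained nuclei by imaging scaled within each plate; lower means fewer cells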
HSV replic up primary fold: further read-out of HSV replic up, marked with its call; fold increase; compound at 10 µM; measured here: primary screen fold increase 10 uM; tested in PC3 cells;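 GFP signal in the first replicate; 1 = infected wells without compound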
Starred values were filed as active, the others as inactive; i = inactive; ? = inconclusive; . = no result given. Hits appear at their usual frequency. About 1.3% of those tested had a hit in this group.

The first 2 entries, to show the layout:
SMILES	HSV replic up	HSV replic up primary fold	GALR2 ag	Insulin prom inh	Insulin prom inh cell count	PKD1 kinase inh	RGS16-Gao
CC(C)(C)c1nnc(NC(=O)C2c3ccccc3Oc3ccccc32)s1	i	0.92	.	.	.	.	64
O=C(CSc1nnc(CNC(=O)c2c(F)cccc2Cl)o1)c1ccccc1	i	1	1.3	-6	73	-5	103

The listing, from the start:
SMILES	HSV replic up	HSV replic up primary fold	GALR2 ag	Insulin prom inh	Insulin prom inh cell count	PKD1 kinase inh	RGS16-Gao
CC(C)(C)c1nnc(NC(=O)C2c3ccccc3Oc3ccccc32)s1	i	0.92	.	.	.	.	64
O=C(CSc1nnc(CNC(=O)c2c(F)cccc2Cl)o1)c1ccccc1	i	1	1.3	-6	73	-5	103
COC(=O)c1ccc(C(=O)OC)c(NC(=O)CN2CCCCC2)c1	i	1	.	-5	110	1	96
COc1cc(OC)cc(-c2nnc(SCC(=O)N(Cc3ccccc3)C(C)(C)C)o2)c1	i	0.97	-1.4	.	.	-3	103
Cn1c(CCN2CCCCC2)nc2cc(NS(=O)(=O)c3ccccc3)ccc21	i	0.61	-0.4	.	.	-8	106
C/C(=N\NC(=O)c1ccc(N(C)C)cc1)c1ccc(C)c(C)c1	i	1.1	-1.8	.	.	-6	101
O=C(CCn1c(=O)oc2ccccc21)NCCN1CCc2ccccc2C1	i	0.97	1.4	-31	124	-1	105
COc1ccc(CNC(=O)C(=O)NCc2cccnc2)cc1	i	1	.	21	97	-3	99
O=C(NCCCN1CCOCC1)c1ccc(CS(=O)(=O)Cc2ccccc2Cl)o1	i	0.89	-1.5	-46	77	-4	102
O=S(=O)(Nc1ccc(Cc2ccncc2)cc1)c1ccc(Br)s1	i	0.88	-3.1	-14	89	11	99
Cc1ccc2cccc(Oc3ncnc4sc(C)c(C)c34)c2n1	i	1.1	-0.4	10	81	1	140
CCOC(=O)CSc1nc2ccccc2n1CC(=O)N1CCN(c2ccccc2)CC1	i	0.98	-2.0	.	.	-3	100
CC(=O)c1c(C)[nH]c(C(=O)OCC(=O)N2CCN(S(=O)(=O)c3ccc(C)cc3C)CC2)c1C	i	1	-0.3	30	116	-3	101
CC(=O)OC(C(=O)NCc1ccc2c(c1)OCO2)c1ccccc1Cl (configuration not stated)	i	1	-2.4	42	104	-5	132
CSc1nsc(SCC(=O)Nc2nncs2)n1	i	0.95	.	27	122	-1	100
CCOC(=O)c1c(N)sc(=S)c2c1CCC2	?	.	-2.2	41	52	-9	95
Cc1ccccc1N1C(=O)c2cccc3c(N(C)CCO)ccc(c23)C1=O	?	.	-2.1	7	114	-38	102
CCOc1ccc2[nH]c(=O)c(CN(Cc3nnnn3CCc3ccccc3)CC3CCCO3)cc2c1 (configuration not stated)	i	0.86	-0.6	-142	54	-6	104
Fc1cccc(Cl)c1Cn1nnc(-c2ccc(N3CCOCC3)cc2)n1	i	0.94	-1.2	42	51	-9	98
CC1CCN(S(=O)(=O)c2ccc(Br)s2)CC1	i	0.91	-1.1	33	88	0	102
COc1ccc(N/C(=N\c2nc(C)cc(C)n2)NC(=O)C(C)C)cc1OC	i	0.86	-2.0	.	.	-4	89
COc1ccc(C(=O)O/N=C(\N)c2ccccn2)c(OC)c1	i	0.66	.	.	.	.	99
c1ccc(CNc2nc(-c3cccs3)nc3ccccc23)cc1	i	0.93	0.0	30	154	0	106
CCCN(CCC)CCNC(=O)c1cc2c(=O)n(C)c3ccccc3c2n1C	i	0.8	0.6	.	.	2	101
COc1ccc(Nc2nc(-c3sc(NC(C)=O)nc3C)cs2)cc1	.	.	-1.1	-26	71	-2	176
COc1ccc(-c2cc(C(F)(F)F)nc(SCC(=O)N(C)Cc3cn(C)nc3C)n2)cc1OC	i	0.96	-0.2	-11	109	-10	0.0*
O=C(CCCN1C(=O)/C(=C/c2ccco2)SC1=S)Nc1ccccc1	i	1.2	-1.5	0	158	8	100
COc1ccc([N+](=O)[O-])cc1NC(=O)CC(C)c1ccccc1 (configuration not stated)	i	1.1	-2.0	-46	96	13	96
Cc1ccc(S(=O)(=O)N2CCOCC2)cc1C(=O)Nc1c(C)n(C)n(-c2ccccc2)c1=O	i	0.95	-1.4	-8	129	-4	66
N#Cc1c(/N=C/c2cc(Br)cs2)sc2c1CCC2	i	1.1	-2.2	54	103	3	.
CC1CN(C(=O)Cn2cnc3c2c(=O)n(C)c(=O)n3C)CC(C)O1 (configuration not stated)	i	0.97	-1.7	38	132	-4	106
N#Cc1c(NC(=O)CCC(=O)O)sc2c1CCCC2	i	0.95	-1.3	71	149	-3	101
COCCn1c(CN2CCN(c3ccc(OC)cc3)CC2)nc2c1c(=O)n(C)c(=O)n2C	i	0.78	-1.2	27	59	-12	107
CCCC(=O)NC(Nc1cc(C(F)(F)F)ccc1Cl)C(Cl)(Cl)Cl (configuration not stated)	i	1	-1.2	-13	61	-10	102
COc1ccc(OC)c(Nc2nc(-c3cccs3)cs2)c1	i	0.89	-3.0	-64	97	-3	116
COc1ccc(CNC(=O)CSc2nnnn2Cc2ccccc2)cc1	i	0.98	-1.4	.	.	8	92
O=C(O)CCC(=O)N1CCN(c2nc3ccccc3s2)CC1	i	0.83	-1.4	40	137	-4	100
O=C(Nc1ccccc1)c1ccccc1OCc1cccc([N+](=O)[O-])c1	i	0.92	-0.7	-46	86	-10	106
COC(=O)CCCC1=CC2=C(c3ccccc3)C(=O)C(C)(OC(=O)C3CCCC3)C(=O)C2=CN1Cc1ccc2c(c1)OCO2 (configuration not stated)	i	0.84	.	.	.	.	99
CCOC(=O)c1c(-c2ccccc2)csc1NC(=O)CCN1C(=O)c2ccccc2C1=O	i	0.98	-0.8	.	.	-9	83
COc1cc(/C=C/C(=O)N2CCOCC2)ccc1OCc1ccccc1	i	0.89	-1.4	-13	102	8	108
CC(C)c1ccccc1NC(=O)CNCCc1ccc(C(F)(F)F)cc1	i	0.95	.	.	.	.	107
N#Cc1c(-c2ccccc2)nc2n(-c3ccccc3)nc(C(=O)Nc3ccccc3)n2c1=O	i	0.82	-0.9	-19	168	0	105
C=CCn1c(SCc2nc3c(c(=O)[nH]c(=O)n3CCCC)n2CCC)nnc1-c1ccccc1	i	1	-2.6	.	.	3	112
COc1ccc(NC(=O)N/C=C/c2ccccc2)cc1	i	0.97	.	-18	171	0	77
CCCCOc1ccc(CN(C)c2ncnc(N)n2)cc1	i	0.93	0.3	-21	79	-10	98
O=C(CSc1nc2ccccc2[nH]1)Nc1ccc(F)cc1	i	0.93	-3.5	.	.	-4	107
Cc1nnc(SCC(=O)Nc2cccc(S(=O)(=O)N(C)c3ccccc3)c2)s1	i	1	-0.5	.	.	-6	153
COc1ccc(N2C(=O)CCC(C(=O)N3CCC(C(N)=O)CC3)C2c2ccc(F)cc2)cc1 (configuration not stated)	i	0.91	-1.3	-33	138	10	90
O=C(Nc1c[nH]c(=O)[nH]c1=O)c1ccc2c(c1)C(=O)N(c1cccc([N+](=O)[O-])c1)C2=O	i	0.87	.	.	.	.	93
Cc1sc2nc(SCC(=O)c3cc(C)n(CC4CCCO4)c3C)n(C(C)C)c(=O)c2c1C (configuration not stated)	i	1	-1.7	.	.	2	91
CC(C)(C)n1ncc2c(=O)n(CC(=O)N3CCc4ccccc43)cnc21	i	0.97	-0.7	.	.	-4	95
COc1ccc(N(CC(O)CN2CCCCC2)S(=O)(=O)c2ccc(C)cc2)cc1 (configuration not stated)	i	0.9	-1.2	.	.	-3	104
N#Cc1ccc(-c2ccc(F)cc2)nc1Oc1ccc(F)cc1	i	0.75	-1.0	-30	120	-4	112
Fc1ccccc1CSc1nc2ncc(Br)cc2[nH]1	i	0.96	0.1	0	99	2	1
Oc1ccccc1Nc1nc(NCc2ccco2)c2ccccc2n1	i	0.85	.	.	.	.	89
C=CCNc1nc2ccccc2c(=O)[nH]1	i	0.86	.	31	92	-1	97
C=CC(=O)NC(NC(=O)C=C)c1ccccc1F	i	1.1	.	.	.	.	101
COc1ccc(C(=O)/C(=C\c2sccc2C)c2nc3ccccc3o2)cc1	i	1	-0.1	-22	112	-2	61
COc1ccccc1N1CCN(C(=O)c2cccc(Oc3ccccc3)c2)CC1	i	0.98	.	.	.	7	100

An excerpt taken from the entries so far, for reference:
SMILES	HSV replic up	HSV replic up primary fold	GALR2 ag	Insulin prom inh	Insulin prom inh cell count	PKD1 kinase inh	RGS16-Gao
N#Cc1c(-c2ccccc2)nc2n(-c3ccccc3)nc(C(=O)Nc3ccccc3)n2c1=O	i	0.82	-0.9	-19	168	0	105
C=CCn1c(SCc2nc3c(c(=O)[nH]c(=O)n3CCCC)n2CCC)nnc1-c1ccccc1	i	1	-2.6	.	.	3	112
COc1ccc(NC(=O)N/C=C/c2ccccc2)cc1	i	0.97	.	-18	171	0	77
CCCCOc1ccc(CN(C)c2ncnc(N)n2)cc1	i	0.93	0.3	-21	79	-10	98
O=C(CSc1nc2ccccc2[nH]1)Nc1ccc(F)cc1	i	0.93	-3.5	.	.	-4	107
Cc1nnc(SCC(=O)Nc2cccc(S(=O)(=O)N(C)c3ccccc3)c2)s1	i	1	-0.5	.	.	-6	153
COc1ccc(N2C(=O)CCC(C(=O)N3CCC(C(N)=O)CC3)C2c2ccc(F)cc2)cc1 (configuration not stated)	i	0.91	-1.3	-33	138	10	90
O=C(Nc1c[nH]c(=O)[nH]c1=O)c1ccc2c(c1)C(=O)N(c1cccc([N+](=O)[O-])c1)C2=O	i	0.87	.	.	.	.	93
Cc1sc2nc(SCC(=O)c3cc(C)n(CC4CCCO4)c3C)n(C(C)C)c(=O)c2c1C (configuration not stated)	i	1	-1.7	.	.	2	91
CC(C)(C)n1ncc2c(=O)n(CC(=O)N3CCc4ccccc43)cnc21	i	0.97	-0.7	.	.	-4	95
COc1ccc(N(CC(O)CN2CCCCC2)S(=O)(=O)c2ccc(C)cc2)cc1 (configuration not stated)	i	0.9	-1.2	.	.	-3	104
N#Cc1ccc(-c2ccc(F)cc2)nc1Oc1ccc(F)cc1	i	0.75	-1.0	-30	120	-4	112
Fc1ccccc1CSc1nc2ncc(Br)cc2[nH]1	i	0.96	0.1	0	99	2	1
Oc1ccccc1Nc1nc(NCc2ccco2)c2ccccc2n1	i	0.85	.	.	.	.	89
C=CCNc1nc2ccccc2c(=O)[nH]1	i	0.86	.	31	92	-1	97

(next part)
SMILES	HSV replic up	HSV replic up primary fold	GALR2 ag	Insulin prom inh	Insulin prom inh cell count	PKD1 kinase inh	RGS16-Gao
Cc1[nH]c2ccc(-c3nnc(SCC(=O)N4CCCc5ccccc54)o3)cc2c1C	i	0.86	-1.2	.	.	-6	104
O=C(/C=C/c1cccc([N+](=O)[O-])c1)c1cccs1	i	0.56	-0.8	38	123	-5	109
CCCCn1c(N)c(-c2nc3ccccc3s2)c2c([N+](=O)[O-])nn(C)c(=O)c21	i	1.1	-0.3	24	76	-3	105
CCc1ccc(NC(=O)c2ccc(F)c(S(=O)(=O)NCC3COc4ccccc4O3)c2)cc1 (configuration not stated)	i	0.78	-1.5	.	.	12	102
CCN(CC)Cc1c(O)ccc2c(=O)c(-c3ccc4c(c3)OCCO4)coc12	i	0.69	0.1	27	84	-5	104
Cc1c(NS(C)(=O)=O)c(=O)n(-c2ccccc2)n1C	i	0.72	-0.8	4	116	-11	99
CCNC(=O)NC(=O)COC(=O)CCc1nc(=O)c2ccccc2n1C	i	0.94	.	-6	114	1	100
CCOC(=O)Cc1csc(NC(=O)c2ccc3c(c2)OCO3)n1	i	1	-0.9	-74	94	-4	101
